Screening results: PubChem, National Center for Advancing Translational Sciences (NCATS)
gsp ag: agonists of gsp mutant (McCune-Albright syndrome). gsp mutant cells, cAMP HTRF, 30 min; control for the full effect not named in the record. Potency, µM (titrated, usually from 76.9 µM), for the others: at the top dose activation (cAMP increase), hits mostly activators. 340,000 tested, 0.13% active; active = well fitted activation curve with a large enough effect; inconclusive = small, poorly fitted or top-dose-only effect, or another doubt; inactive = no such curve, though single readings can be large or run the other way; cell line not stated here;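 further: phosphodiesterase inhibitor Ro 20-1724 added with compounds to block cAMP breakdown; potency means the concentration at half of the fitted maximal effect; nearly all actives have a fitted effect of over 60% in size; about a fifth of the inactives were tested at one dose only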
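Cells in DMEM/10% FBS with G418 were pretreated with compounds in DMSO plus […] (300 uM stock) for 30 min at 37C. cAMP was measured by HTRF (cAMP-d2 plus anti-cAMP antibody-K) after 30 min at room temperature.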
D2 ag: human D2 receptor agonism in beta-arrestin assay. DiscoveRx PathHunter D2 beta-arrestin, luminescence, 90 min; 100% = 57 uM dopamine signal. activation, % (concentration not given with the values). 360,000 tested, 0.084% active; in the data active = activation above about 40%; inconclusive = about 15% to 40%; inactive = below about 15%; further: compound concentration not given in the record; the text of the record calls up to 30% inactive
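DiscoveRx PathHunter D2 beta-arrestin cells (2,100/well) attached overnight, then compound-stimulated 90 min at 37 C in HBSS/10 mM HEPES/0.1% Tween-20 buffer; beta-galactosidase complementation read by luminescence after 1 h at ambient temperature. Dopamine 57 uM final (EC100) as control.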
D2 PAM: potentiates the human D2 dopamine receptor allosterically | DiscoveRx D2 beta-arrestin cells, luminescence, 90 min; 100% = 57 uM dopamine signal | potentiation, % (no concentration beside the values) | AID 624464 | 360,000 tested, 0.23% active; active = potentiation of 50% or more; inconclusive = 30% to 50%; inactive = 30% or less;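 further: compound concentration not given in the record; tested on top of an EC20 dose of dopamine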
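PathHunter beta-arrestin assay in DiscoveRx D2 cells. Compounds were added with an EC20 of dopamine (50 nM final) for 90 min at 37 deg C. Luminescence was read 1 h after detection reagent, with 57 uM dopamine as the EC100 control.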
Six1-Eya2 blk: Six1/Eya2 interaction inhibition; Q15475+O00167; AlphaScreen GST-Six1/His-Eya2 binding, biochemical; stronger effect = lower value; control for the full effect not named in the record; activity change, % (concentration not given with the values); 360,000 tested, 0.56% active; AID 651725; in the data active = activity change below about -65%; inconclusive = about -30% to -65%; inactive = above about -30%; further: on the % scale 0 is the no-effect control and ±100 the full control effect
Target sequence (O00167 whole entry, looked up): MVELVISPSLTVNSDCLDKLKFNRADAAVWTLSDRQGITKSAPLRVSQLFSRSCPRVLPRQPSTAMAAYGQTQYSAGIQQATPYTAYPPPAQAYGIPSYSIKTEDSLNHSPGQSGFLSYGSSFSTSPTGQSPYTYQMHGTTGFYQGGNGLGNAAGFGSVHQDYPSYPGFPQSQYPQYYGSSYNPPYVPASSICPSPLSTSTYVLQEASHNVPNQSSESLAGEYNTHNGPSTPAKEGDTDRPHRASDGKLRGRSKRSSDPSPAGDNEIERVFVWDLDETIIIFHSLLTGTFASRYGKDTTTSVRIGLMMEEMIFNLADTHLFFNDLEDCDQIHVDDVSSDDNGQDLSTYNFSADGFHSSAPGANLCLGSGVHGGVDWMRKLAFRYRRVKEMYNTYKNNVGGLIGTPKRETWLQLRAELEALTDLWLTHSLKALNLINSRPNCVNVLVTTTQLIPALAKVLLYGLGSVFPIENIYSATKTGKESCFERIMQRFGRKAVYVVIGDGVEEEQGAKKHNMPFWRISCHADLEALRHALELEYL
Target sequence (Q15475 whole entry, looked up): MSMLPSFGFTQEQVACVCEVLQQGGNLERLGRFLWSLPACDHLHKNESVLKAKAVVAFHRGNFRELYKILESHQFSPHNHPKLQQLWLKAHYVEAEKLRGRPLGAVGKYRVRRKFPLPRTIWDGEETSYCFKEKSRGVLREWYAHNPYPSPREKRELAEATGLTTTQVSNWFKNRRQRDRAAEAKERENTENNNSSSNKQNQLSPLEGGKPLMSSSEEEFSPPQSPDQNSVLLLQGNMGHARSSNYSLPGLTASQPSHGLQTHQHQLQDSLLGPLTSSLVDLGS
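AlphaScreen luminescence read after one hour at 37 °C in darkness. Pin-transferred compounds met GST-Six1 and His-Eya2 protein (5X stock 250 nM/500 nM) plus glutathione donor and Ni-chelate acceptor beads (5X, 50 ug/mL).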
gsp antag: antagonists of gsp mutant (McCune-Albright syndrome). gsp-mutant cells, cAMP HTRF, 30 min; control for the full effect not named in the record. Potency, µM (titrated, usually from 76.9 µM), for inactives: at the top dose activity change, negative = inhibition, hits mostly inhibitors. 340,000 tested, 0.4% active. AID 624288; active = falling curve of any shape with a large fitted effect; inconclusive = falling curve, mostly with a smaller effect; inactive = flat or rising curve; cell line not stated here;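 further: intracellular cAMP measured with PDE inhibitor Ro 20-1724 present during compound exposure; potency means the concentration at half of the fitted maximal effect; on the % scale 0 is the no-effect control and ±100 the full control effect; nearly all actives have a fitted effect of over 65% in size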
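Measurement of cellular cAMP by homogeneous time-resolved fluorescence following a 30 min compound exposure at 37C. The PDE inhibitor […] was present throughout; the assay buffer was DPBS with 0.05% BSA and 0.005% Tween 20.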
CtBP-E1A inh: blocks the CtBP interaction with E1A. AlphaScreen GST-E1A/His-CtBP binding, 1536-well; stronger effect = lower value; control for the full effect not named in the record. activity change, % (no concentration beside the values). 340,000 tested, 0.49% active. AID 651724; in the data active means activity change below about -65%; inconclusive means about -30% to -65%; inactive means above about -30%; further: on the % scale 0 is the no-effect control and ±100 the full control effect; compound concentration not given in the record
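GST-E1A and His-tagged CtBP (125 nM each as 5X stock) were preincubated with pin-transferred compound for 2 h at 37 °C in the dark, then glutathione donor and nickel acceptor beads were added for 1 h before AlphaScreen reading.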
* = called active by the depositor; ? = inconclusive; nt = not tested or not shown; [ ] = another dose, or the depositor's remark. An unsorted share of the library; about 1.4% have a hit in one of these screens.

| molecule | D2 ag | gsp antag | gsp ag | Six1-Eya2 blk | D2 PAM | CtBP-E1A inh |
| --- | --- | --- | --- | --- | --- | --- |
| CC(C)[C@@H](C(=O)N1CCCC1)N1C(=O)N2CCc3c([nH]c4ccccc34)[C@@]2(C)C1=O | 2.3 | 4% | -34%[inhibitor] | -7 | -1 | -20 |
| O=C1NC2(CCCC2)C(=O)N1CCS(=O)(=O)Oc1ccccc1 | -2.9 | 1% | -15%[15.4 µM] | 6 | -10 | 0 |
| Cc1nn(CC(=O)N2N=C(C(F)F)CC2(O)C(F)F)c(C)c1[N+](=O)[O-] (configuration not stated) | -2.1 | 11% | -23% | 4 | -4 | 0 |
| CCC(C)Sc1nnc(NC(=O)C2CCN(C(=O)c3ccco3)CC2)s1 (configuration not stated) | -0.7 | -9% | -1%[15.4 µM] | 3 | -2 | 6 |
| O=c1c2ccccc2[nH]c(=S)n1CCN1CCCC1 | -2.4 | 1% | 7% | 9 | -11 | nt |
| O=C(N[C@@H](c1ccccc1)[C@@H]1C[C@H]1C(=O)NCc1ccccn1)OCc1ccccc1 | -1.1 | -1% | nt | 0 | -33 | 2 |
| C=CCSC1=Nc2sccc2C2=NC(=O)CN12 | -1.0 | 15% | 20µM* | -19 | -17 | -14 |
| COc1cc(NC(=O)Cc2ccccc2)c(C(=O)O)cc1OC | -1.6 | 7% | -2%[15.4 µM] | 2 | 21 | 15 |
| O=C(NN=C1c2ccccc2-c2ccccc21)c1ccccc1 | -1.2 | -17% | -34%[inhibitor] | -9 | -14 | ? |
| COc1ccc(OC)c(C2CC(=O)C3=C(C2)NC(=O)CC3c2ccc(O)c(OC)c2)c1 (configuration not stated) | 1.6 | -9% | 20% | 2 | 3 | -1 |
| COc1ccccc1N(CC(=O)NCCSCc1ccccc1)S(=O)(=O)c1ccccc1 | -6.5 | nt | -34%[inhibitor] | -10 | -10 | 2 |
| COc1ccc(C(=O)NC(Nc2ccc(C)cc2)C(Cl)(Cl)Cl)cc1 (configuration not stated) | 0.5 | ? | ? | -21 | -1 | 5 |
| O=C(c1ccccc1)c1c[nH]c2ccccc12 | -2.0 | 0% | 25%[15.4 µM] | -4 | -4 | 3 |
| Cc1ccc(Cc2c(-c3ccc(F)cc3)nc3c(C)cc(Br)cn23)cc1 | -5.1 | nt | nt | 0 | -7 | -7 |
| Cc1ccc(CN2CCN(CC(=O)NCc3ccc(Cl)cc3)C2=O)cc1 | -3.4 | -7% | 12% | -8 | -1 | -4 |
| CC12COC3(P(=O)(c4ccccc4)c4ccccc4)CC1CCC23CP(=O)(c1ccccc1)c1ccccc1 (configuration not stated) | -1.7 | -30% | -37%[inhibitor] | -17 | -11 | -1 |
| Cn1c(=O)c2c(SCC(=O)N3CCCc4ccccc43)nc(CC(C)(C)C)nc2n(C)c1=O | -1.0 | -1% | -4% | 2 | -3 | 3 |
| COc1ccc(CN(C)CCc2ccccn2)cc1OC | -2.6 | 6% | -30% | 0 | -7 | 6 |
| CC(C)(C)C(=O)N1N=C(c2cccc(NS(C)(=O)=O)c2)CC1c1cccs1 (configuration not stated) | -2.1 | -23% | -1% | -3 | 0 | 7 |
| O=C(COC(=O)c1cc(-c2ccccn2)nc2ccccc12)Nc1ncc(C(F)(F)F)cc1Cl | -0.6 | 11% | ? | 12 | -2 | 8 |
| CNc1cc([N+](=O)[O-])ccc1N/C=C/C(=O)c1ccc2c(c1)OCO2 | 2.9 | 13% | -13% | -13 | -15 | -1 |
| O=C(CN1C(=O)C2C3C=CC(C3)C2C1=O)NCc1ccc2c(c1)OCO2 (configuration not stated) | -1.4 | -1% | -14% | 6 | -9 | 6 |
| COc1ccc(NC(=O)Nc2ccccc2OC)cc1 | 0.5 | -8% | -19% | -1 | -17 | 5 |
| Cc1ccc(C)c(NC(=O)C2CCCN(S(=O)(=O)c3ccc4[nH]c(=O)ccc4c3)C2)c1 (configuration not stated) | 2.0 | -5% | -10% | 7 | -2 | -2 |
| N#Cc1c(NC(=O)CSC2=NCCS2)sc2c1CCCC2 | -1.9 | -7% | -47%[inhibitor] | -2 | -13 | -9 |
| O=C(NC(Cc1ccccc1)C(=O)O)/C(=C/c1ccc(F)cc1)NC(=O)c1ccccc1 (configuration not stated) | -2.1 | -13% | -13% | 4 | 1 | nt |
| COc1ccccc1C(=O)NC(=O)COC(=O)CCOc1ccccc1C | -1.6 | 1% | -37%[inhibitor] | 3 | 1 | 4 |
| Cc1ccc(N(CC(=O)NC2CCCC2)C(=O)CCC(=O)Nc2ccccn2)cc1 | -0.1 | 10% | -4%[15.4 µM] | -1 | -3 | 1 |
| Cc1cc(CNC(=O)COc2ccc(C#N)cc2)c2ccccc2n1 | -3.1 | 7% | 46%[15.4 µM] | 11 | -10 | 4 |
| CCCCN(CCCC)CC(O)CN1C(=O)NC(C)(C)C1=O (configuration not stated) | -2.2 | 1% | 18% | -1 | -7 | -3 |
| O=C(OCc1nc2ccccc2c(=O)[nH]1)c1cccs1 | -3.3 | -1% | -17% | -1 | 1 | 2 |
| CCC(Sc1nc2sc(C(=O)OC)c(C)c2c(=O)n1N)C(=O)NCC1CCCO1 (configuration not stated) | -2.4 | -6% | 9% | 1 | -13 | 14 |
| CN1C(=O)c2cccc(NCCCCCCN3C(=O)c4ccccc4C3=O)c2C1=O | -4.1 | 2% | 26% | -7 | -6 | -1 |
| Cc1cc(C)nc(-n2nc(C)c(Br)c2Nc2ccc(Br)cc2)n1 | 1.2 | 1% | 99% | 0 | 1 | -3 |
| Cn1cc(C(=O)NCc2ccc(Cl)cc2)c(=O)c2cc(S(=O)(=O)N3CCOCC3)ccc21 | -1.9 | 10% | -19% | -1 | -7 | 2 |
| O=C(Nc1cccc(C(F)(F)F)c1)c1csc([C@H]2C[C@H](O)[C@@H](CO)O2)n1 | -8.0 | nt | nt | 4 | -8 | -16 |

An excerpt from above, showing only gsp ag:
smiles | gsp ag
Cc1ccc(N(CC(=O)NC2CCCC2)C(=O)CCC(=O)Nc2ccccn2)cc1 | -4%[15.4 µM]
COc1ccccc1C(=O)NC(=O)COC(=O)CCOc1ccccc1C | -37%[inhibitor]

For reference, some entries already given:
| molecule | D2 ag | gsp antag | gsp ag | Six1-Eya2 blk | D2 PAM | CtBP-E1A inh |
| --- | --- | --- | --- | --- | --- | --- |
| O=C(COC(=O)c1cc(-c2ccccn2)nc2ccccc12)Nc1ncc(C(F)(F)F)cc1Cl | -0.6 | 11% | ? | 12 | -2 | 8 |
| CNc1cc([N+](=O)[O-])ccc1N/C=C/C(=O)c1ccc2c(c1)OCO2 | 2.9 | 13% | -13% | -13 | -15 | -1 |
| O=C(CN1C(=O)C2C3C=CC(C3)C2C1=O)NCc1ccc2c(c1)OCO2 (configuration not stated) | -1.4 | -1% | -14% | 6 | -9 | 6 |
| COc1ccc(NC(=O)Nc2ccccc2OC)cc1 | 0.5 | -8% | -19% | -1 | -17 | 5 |
| Cc1ccc(C)c(NC(=O)C2CCCN(S(=O)(=O)c3ccc4[nH]c(=O)ccc4c3)C2)c1 (configuration not stated) | 2.0 | -5% | -10% | 7 | -2 | -2 |
| N#Cc1c(NC(=O)CSC2=NCCS2)sc2c1CCCC2 | -1.9 | -7% | -47%[inhibitor] | -2 | -13 | -9 |
| O=C(NC(Cc1ccccc1)C(=O)O)/C(=C/c1ccc(F)cc1)NC(=O)c1ccccc1 (configuration not stated) | -2.1 | -13% | -13% | 4 | 1 | nt |
| COc1ccccc1C(=O)NC(=O)COC(=O)CCOc1ccccc1C | -1.6 | 1% | -37%[inhibitor] | 3 | 1 | 4 |
| Cc1ccc(N(CC(=O)NC2CCCC2)C(=O)CCC(=O)Nc2ccccn2)cc1 | -0.1 | 10% | -4%[15.4 µM] | -1 | -3 | 1 |
| Cc1cc(CNC(=O)COc2ccc(C#N)cc2)c2ccccc2n1 | -3.1 | 7% | 46%[15.4 µM] | 11 | -10 | 4 |
| CCCCN(CCCC)CC(O)CN1C(=O)NC(C)(C)C1=O (configuration not stated) | -2.2 | 1% | 18% | -1 | -7 | -3 |
| O=C(OCc1nc2ccccc2c(=O)[nH]1)c1cccs1 | -3.3 | -1% | -17% | -1 | 1 | 2 |
| CCC(Sc1nc2sc(C(=O)OC)c(C)c2c(=O)n1N)C(=O)NCC1CCCO1 (configuration not stated) | -2.4 | -6% | 9% | 1 | -13 | 14 |
| CN1C(=O)c2cccc(NCCCCCCN3C(=O)c4ccccc4C3=O)c2C1=O | -4.1 | 2% | 26% | -7 | -6 | -1 |

Next structures follow.
| molecule | D2 ag | gsp antag | gsp ag | Six1-Eya2 blk | D2 PAM | CtBP-E1A inh |
| --- | --- | --- | --- | --- | --- | --- |
| CC(c1nnc(SCC(=O)c2c(N)n(C3CC3)c(=O)[nH]c2=O)n1-c1ccc(F)cc1)N(C)C (configuration not stated) | -4.0 | 10% | ? | 8 | -7 | nt |
| CCn1nnnc1SCC(=O)Nc1ccc2c(c1)OCCO2 | -2.0 | 3% | -20% | 4 | -7 | -1 |
| CN=C1SC(CC(=O)Nc2ccc(F)cc2F)C(=O)N1/N=C/c1ccc(OC(F)F)c(OC)c1 (configuration not stated) | 0.1 | -2% | 22%[15.4 µM] | 3 | -3 | 0 |
| CCOC(=O)C1CCN(c2ccc([N+](=O)[O-])c(C(C)=O)c2)CC1 | 4.6 | -13% | 26%[15.4 µM] | -3 | -1 | 2 |
| CC(C)CN(C(=O)c1cccc(S(=O)(=O)N2CCCCC2)c1)C1CCS(=O)(=O)C1 (configuration not stated) | -1.4 | -4% | -24% | -14 | -30 | -25 |
| O=C(CS(=O)(=O)c1ccccc1)NCc1ccccc1 | -7.7 | 7% | -4% | 0 | -12 | -4 |
| CN(C)S(=O)(=O)N1CCCN(S(=O)(=O)N(C)C)CC1 | -1.8 | 10% | 19% | 2 | -10 | 1 |
| CCN1CCCC1CN(Cc1cc2cc(C)cc(C)c2[nH]c1=O)C(=O)Nc1ccccc1OC (configuration not stated) | -4.9 | -2% | -34%[inhibitor] | -10 | -13 | -2 |
| C/C(=N\Nc1ncc(Cl)cc1Cl)c1ccccn1 | -7.5 | 6% | 0%[15.4 µM] | -87* | -8 | -66* |
| CCOc1ccc(NC(=O)CN2C(=O)NC(C)(c3ccc4c(c3)OCCCO4)C2=O)cc1OCC (configuration not stated) | 6.2 | -3% | ? | -14 | 4 | -11 |
| O=[N+]([O-])c1ccccc1NC(=S)N/N=C/c1ccc(O)c(O)c1 | 12 | -2% | 16% | -21 | 1 | ? |
| COc1ccc(C(=O)NCCCn2ccnc2)cc1[N+](=O)[O-] | -0.7 | 12% | 24% | 20 | -9 | 2 |
| CCOC(=O)c1c(CCl)nc2ccccc2c1C | -5.1 | -21% | 11% | 0 | -5 | -5 |
